# NPR1 antag – blocks ANP-stimulated signaling of human Npr1 receptor. HEK293 hNpr1 GloSensor cGMP, ANP-stimulated luminescence. AID 1347048. 76,000 compounds, 1.6% hits. P16066. Potency, µM (highest dose often 46.3 µM), for inactives: at the highest dose activity change, negative = inhibition, actives largely listed as inhibitors; active = well fitted inhibition curve with a large enough effect; inconclusive = small, poorly fitted or top-dose-only effect; inactive = no such curve, though single readings can be large or run the other way;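 note: nearly all actives have a fitted effect of over 60% in size; nearly all hits also lower the signal before the agonist is added; a reference antagonist and vehicle were the controls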
# Target sequence (P16066 whole entry, looked up): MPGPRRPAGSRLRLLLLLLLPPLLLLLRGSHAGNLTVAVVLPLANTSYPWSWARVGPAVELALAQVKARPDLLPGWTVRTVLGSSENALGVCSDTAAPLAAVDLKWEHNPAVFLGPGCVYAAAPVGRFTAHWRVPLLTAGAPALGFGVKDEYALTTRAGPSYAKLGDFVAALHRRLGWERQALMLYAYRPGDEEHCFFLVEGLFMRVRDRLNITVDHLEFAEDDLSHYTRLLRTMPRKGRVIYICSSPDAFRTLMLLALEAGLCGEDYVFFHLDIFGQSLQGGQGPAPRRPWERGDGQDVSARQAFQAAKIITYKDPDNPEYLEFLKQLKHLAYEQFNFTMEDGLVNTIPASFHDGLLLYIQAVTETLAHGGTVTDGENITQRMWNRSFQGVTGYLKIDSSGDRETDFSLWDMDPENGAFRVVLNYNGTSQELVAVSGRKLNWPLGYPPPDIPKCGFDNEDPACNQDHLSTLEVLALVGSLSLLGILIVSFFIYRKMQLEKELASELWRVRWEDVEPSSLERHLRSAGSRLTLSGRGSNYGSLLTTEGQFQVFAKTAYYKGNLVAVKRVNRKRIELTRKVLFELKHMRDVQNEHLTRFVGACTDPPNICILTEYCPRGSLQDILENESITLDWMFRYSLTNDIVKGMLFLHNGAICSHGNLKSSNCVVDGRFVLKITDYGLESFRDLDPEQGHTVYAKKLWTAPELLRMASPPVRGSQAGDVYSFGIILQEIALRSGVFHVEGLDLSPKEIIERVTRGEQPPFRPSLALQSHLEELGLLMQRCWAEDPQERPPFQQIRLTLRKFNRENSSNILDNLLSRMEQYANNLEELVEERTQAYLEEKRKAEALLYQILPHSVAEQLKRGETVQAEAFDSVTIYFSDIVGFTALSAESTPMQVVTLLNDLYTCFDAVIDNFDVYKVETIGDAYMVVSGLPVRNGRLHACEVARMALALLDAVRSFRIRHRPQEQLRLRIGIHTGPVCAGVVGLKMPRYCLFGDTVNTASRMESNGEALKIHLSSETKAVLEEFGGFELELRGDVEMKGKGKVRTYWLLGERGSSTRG
#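 Compound pre-incubated 30 min at room temperature on GloSensor-loaded HEK293 cells stably carrying hNpr1 and the pGS-40F cGMP biosensor. Stimulation uses hNppA at 0.1 nM final; luminescence is taken at baseline and 20 min post-agonist.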
# Starred values were filed as active, the others as inactive; u = inconclusive; [ ] = remark or other dose. % is set by controls: 0 for no effect and ±100 for the full control effect; potency is the fitted concentration of half-maximal effect.
SMILES,NPR1 antag
CCCCN1C(=O)[C@@H]2C[C@@H](O)CN2C2(CN(C)C2)C1=O,1.5%[70.6 µM]
O=C([C@@H]1C[C@H](Oc2ccccc2)CN1C(=O)c1cc2ccccc2[nH]1)N1CCCC1,3.8%
CN(C)C[C@@H]1CN(Cc2cccnc2)C[C@H]1NC(=O)c1ccc(F)c(Cl)c1,1.7%
CCN1C(=O)Cc2cc(C(=O)NCc3ccc4c(c3)OCO4)ccc21,4.9%
CN(C)c1ccc(CN[C@H]2C[C@H]3C(=O)NC[C@@H](CCC(=O)Nc4ccccc4)N3C2)cc1,-9.8%
COc1ccc(C(=O)N2C[C@@H](Oc3cccnc3)C[C@H]2C(=O)N2CCCC2)cn1,-1.3%
COc1ccc(C(=O)N2CCC3(CC2)CC(c2ccccc2)=NO3)cc1,u
NC(=O)C1CCN(c2cc(-c3noc([C@@H]4CCCN4Cc4ccc(Cl)cc4)n3)ccn2)CC1,-14.6%
CSCCC(=O)N1CCCC(CCc2ccccc2F)C1 (stereo not drawn),-3.9%
COCCN1CCC(N2CCN(C(=O)C3CCCCC3)CC2)C1=O (stereo not drawn),9.9%
COc1ncc(-c2cccc(COc3ccc4c(cnn4CC[S+](C)(=O)[O-])c3)c2)cn1,u
O=C(Cc1ccc(Cl)cc1)N1CCC2(CC1)NC(=O)N(c1ccc(F)cc1)N2,-4.8%
CN1C[C@@H](N)C[C@H]1C(=O)N1CCC2(CC1)Nc1ccccc1NC2=O,2.0%
Cn1cnnc1CC1CCN(C(=O)c2cccs2)CC1,0.2%
CCN(CC)C(=O)c1csc(N2CCN(c3cccc(Cl)c3)CC2)n1,15.8µM*

# The closing seven entries of the section before are carried over, then new ones follow:
SMILES,NPR1 antag
CSCCC(=O)N1CCCC(CCc2ccccc2F)C1 (stereo not drawn),-3.9%
COCCN1CCC(N2CCN(C(=O)C3CCCCC3)CC2)C1=O (stereo not drawn),9.9%
COc1ncc(-c2cccc(COc3ccc4c(cnn4CC[S+](C)(=O)[O-])c3)c2)cn1,u
O=C(Cc1ccc(Cl)cc1)N1CCC2(CC1)NC(=O)N(c1ccc(F)cc1)N2,-4.8%
CN1C[C@@H](N)C[C@H]1C(=O)N1CCC2(CC1)Nc1ccccc1NC2=O,2.0%
Cn1cnnc1CC1CCN(C(=O)c2cccs2)CC1,0.2%
CCN(CC)C(=O)c1csc(N2CCN(c3cccc(Cl)c3)CC2)n1,15.8µM*
CCOc1ccccc1CN1CCC2(CCN(C(=O)NC3CCCC3)CC2)Oc2ccccc21,7.4%
Cc1nc(-c2ccc(F)cc2)n(Cc2ccc(F)c(F)c2)c(=O)c1CCO,-23.3%
COCCNC(=O)N1CCCC(c2noc(COc3ccccc3)n2)C1 (stereo not drawn),-12.7%
Cc1sc2cc(C(=O)N3CCCC3)[nH]c2c1CN1CCCCC1,-0.4%
COc1cccc(C(=O)N2CCC3(CC2)Cc2ccccc2NC3=O)c1,-2.2%
CCN1C(=O)C2CC3(CCN(S(=O)(=O)N(C)C)CC3)CN2C1=O (stereo not drawn),-0.8%
CCCC(=O)N1C[C@@H](CO)[C@H](c2nc(-c3ccncc3)no2)C1,-0.1%
Cc1onc(C(=O)N2CCCC(Cc3nncn3Cc3ccccc3)C2)c1Cn1cc(Cl)cn1 (stereo not drawn),-7.5%
O=C(CCc1ccccc1)N1CCc2nc3cc(-c4ccccc4)[nH]n3c(=O)c2C1,1.9%
CCc1cccc2c(C(CC(=O)NCC(C)C)c3ccccc3OC)c[nH]c12 (stereo not drawn),-18.3%
O=C(Cn1cccc1-c1nc(-c2ccc(F)cc2)no1)Nc1cccc(Cl)c1,-2.1%
O=C(NCCN1CCCCC1)C1CCN(c2cnn(CC3CC3)c(=O)c2)C1 (stereo not drawn),-1.1%
CCNC(=O)N1C[C@H]2OC(=O)N(Cc3ccc(OC)c(OC)c3)[C@H]2C1,5.7%
COc1ccc(C(=O)N2CC(Oc3ccc(F)cc3C)C2)cc1,-2.9%[70.6 µM]
Cc1ccc(CNC(=O)N2CCCCCCNC(=O)[C@@H]3C[C@@H](C(=O)NCCc4cnc[nH]4)C[C@@H]32)cc1,-1.6%
CC(C)C(=O)N1CCOc2ccc(CN3CCc4ccccc4C3)cc2C1,-4.5%
NC1CC(c2cc(N3CCC(OCc4ccccc4)CC3)ncn2)C1 (stereo not drawn),-1.3%
CCC(C)NC(=O)C(NC(=O)c1ccc(OC)cc1)C1CCN(C(=O)c2cccc(OC)c2)CC1 (stereo not drawn),-2.2%
CN(C)c1ccc(CN(C)C2CCOc3ccccc32)cc1 (stereo not drawn),-9.5%[70.6 µM]
COc1ccc(CN2CCn3c(nn(-c4ccncc4)c3=O)C2)cc1,u
Cc1nc(C2CC(O)C2)cc(N2CCN(c3cnn(C)c(=O)c3)CC2)n1 (stereo not drawn),1.7%
CN(Cc1cccnc1)C1CN(C(=O)C2CCCC2)C1,1.6%
CC(C)c1cc(NCc2csc(-c3ncccn3)n2)n2nccc2n1,0.6%
O=C(CSc1ccccn1)N1CCn2nc(C(O)c3ccccc3)cc2C1 (stereo not drawn),2.2%
CN(C)C[C@@H]1CN(C)C[C@H]1NC(=O)c1ccnnc1,-1.5%
COc1cc(NC(=O)N2CCCC(Cn3cnc4cccnc43)C2)cc(OC)c1OC (stereo not drawn),-14.0%
COCCN1CCCCCC(O)c2cc(C(=O)Nc3cccc(OC)c3)ccc21 (stereo not drawn),-1.4%
N#Cc1cccc(CN[C@H]2CO[C@H]3[C@@H]2OC[C@@H]3n2cc(-c3ccccn3)nn2)c1,-19.3%[70.6 µM]
Cc1cc(S(=O)(=O)N2C[C@@H](F)C[C@H]2C(=O)N2CCCCC2)ccc1Cl,2.2%
O=C(c1nnc(CN2CCN(c3ccccn3)CC2)n1-c1cccnc1)N1CCC[C@@H]1c1cccc(F)c1,-1.9%
O=C1Nc2ccc(-c3cccc(C(F)(F)F)c3)cc2C(=O)N2CCN(C(=O)c3cccc(F)c3)C[C@H]12,-3.6%
CN1CCc2[nH]cnc2C12CCN(C(=O)c1ccc(-c3ccn[nH]3)cc1)CC2,11.7%
COc1cccc(CN2CCCOCCNC(=O)[C@@H]3CCCC[C@@H]32)c1,-19.8%
Cc1ccc(OCc2nc(C3CCCN3C(=O)Nc3ccc(C)c(F)c3)no2)cc1 (stereo not drawn),-22.7%
CN(C)C(=O)CN1CCCc2nc(C3CC3)ncc2C1=O,-2.2%
COc1ccc(NC(=O)C2CCN(C(=O)c3ncn4c3COC(c3ccc(OC)cc3)C4)CC2)cc1 (stereo not drawn),-7.5%
CNC(=O)N1CCC(C2CCN(C(=O)c3ccccc3OC(F)(F)F)C2)CC1 (stereo not drawn),2.8%
O=C(Cc1ccccc1)N1CC2CC(C1)[C@H]1CCCC(=O)N1C2 (stereo partly drawn),-3.3%
COC(=O)[C@@H]1Cc2c([nH]c3ccccc23)[C@H]2C[C@@H](NCCO)C[C@@H](c3ccc(F)cc3)N21,2.4%
O=C(NCC1CNCCOC1)c1ccc2nc(-c3ccc(F)cc3)cn2c1 (stereo not drawn),-5.8%
O=C(c1ccc(OC(F)(F)F)cc1)N1CCC2(CC1)CC(O)CCO2 (stereo not drawn),-8.6%
COc1ccc(C(=O)N2CCC([C@@H]3CNC[C@H]3CO)CC2)cc1,5.6%
COc1ccc(NC(=O)c2cc3n(n2)CC(c2ccc(Cl)cc2)OC3)cc1 (stereo not drawn),u
Cc1noc(C)c1C(=O)NC1CCCc2c1[nH]c1ccc(F)cc21 (stereo not drawn),u
COC(=O)[C@@H]1Cc2ncn(Cc3ccccc3)c2CN1S(=O)(=O)c1ccc(C)cc1,1.8%[70.6 µM]
Cc1ccsc1C(=O)N1CCN(c2cc(-c3cccs3)[nH]n2)CC1,-22.8%
O=C(NC1CCN(c2cc(-c3ccc(Cl)cc3)[nH]n2)C1)c1ccc2cc[nH]c2c1 (stereo not drawn),-21.2%
CC(C)NC(=O)NCC1(COc2ccccc2)C[C@@H](O)[C@@H](O)C1 (stereo partly drawn),-2.2%[70.6 µM]
Cn1ncc(N2CCN(c3cc(C4CC(O)C4)nc(N)n3)CC2)cc1=O (stereo not drawn),4.4%
Cc1ccc(-c2nc(C3CC(=O)N(c4ccc(F)c(Cl)c4)C3)no2)cc1C (stereo not drawn),-19.1%
Cn1c(Cn2cccn2)nnc1C1CC(NC(=O)c2ccc(CO)o2)C1 (stereo not drawn),10.8%
O=C(c1cccc(-n2cccn2)c1)N1CCOCC(O)(CN2CCCC2)C1 (stereo not drawn),2.4%
CC1(C)[C@H](Cc2cc(COC(=O)c3cccs3)on2)C[C@@H]1NC(=O)c1cccs1,25.1µM*
O=C(NCCc1ccccn1)c1ccc(OC2CCNCC2)nc1,u
Cn1cc(C(=O)N2CCC(c3noc(-c4ccccc4)n3)C2)cn1 (stereo not drawn),-1.7%
CC(=O)NC1(C)CCN(Cc2ccc(-c3cccc(Cl)c3)cc2)C1 (stereo not drawn),-22.4%[70.6 µM]
Cc1noc(C)c1-c1cc2c(cc(C)n2C)c(-c2cnn(C)c2)n1,-1.3%[70.6 µM]
Cc1nn(CC(=O)NCCN2CCCCCC2)c(=O)c2nc(-c3ccccc3)sc12,-3.0%
O=C1NCCCCCN(Cc2cn[nH]c2-c2cccs2)[C@H]2CCC[C@@H]12,1.4%
Cc1cc(C(=O)N[C@@H]2CCC[C@@H](C(=O)NCc3cc(F)cc(F)c3)CC(=O)N(C)C2)no1,-2.1%

# Additional compounds follow:
SMILES,NPR1 antag
O=C(NCCCN1CCOCC1)c1noc(-c2ccc[nH]c2=O)n1,3.4%
COC1CCN(C(=O)c2ccnc(-c3nnc4ccc(N5CCOCC5)nn34)c2)CC1,0.4%[70.6 µM]
O=C(NCc1ccncc1)C1CC(=O)N(c2n[nH]c3ccccc23)C1 (stereo not drawn),-0.6%
Cc1cc(C(=O)N2CC(N(C)Cc3cccnc3)C2)n[nH]1,-1.5%
O=C(Cc1ccc(Cl)cc1)N1CCC(N2CC3CC(C2)[C@H]2CCCC(=O)N2C3)CC1 (stereo partly drawn),4.0%
Cc1cccc(C(=O)N2CCC(c3noc(COc4cccnc4)n3)CC2)c1,4.5%
Cc1cc2c(c(=O)n(-c3ccc(F)cc3)c(=O)n2CC(=O)Nc2cc(F)ccc2F)n1C,4.0%
Cc1noc(C)c1Cn1cnc(-c2ccccc2)c1-c1ccc(CO)o1,0.9%
CN(C)c1cc(N2CCCC(NC(=O)c3ccccc3F)C2)ncn1 (stereo not drawn),1.9%
Cc1ccc(C)c(C(=O)NC2CCN(c3cc(C(F)(F)F)nc(C)n3)CC2)c1,-6.1%
CCN1CCN(C(=O)c2cc(-c3ccccc3)cn2C)CC1,5.5%
COC(=O)[C@]1(CC(C)C)N[C@H](c2cc(C(C)C)no2)[C@@H]2C(=O)N(C)C(=O)[C@@H]21,4.9%
O=C1CCC2(CCCO2)CCN1Cc1cccc(F)c1 (stereo not drawn),5.6%
CN1CC2(CCN(C(=O)c3cccn3C)CC2)CC(c2ccccc2)C1=O (stereo not drawn),1.4%
Cc1noc(C)c1[S+](=O)([O-])N1CCC2(CCN(Cc3cccs3)c3ccccc3O2)CC1,-18.9%
COc1ccc(S(=O)(=O)N[C@H]2C[C@@H](c3nc(C(C)C)no3)N(C)C2)cc1,8.7%[70.6 µM]
O=C(Cc1ccccc1)Nc1ccnn1C1CCN(Cc2cn[nH]c2-c2ccccc2)CC1,4.3%
CN(C)c1cc(N2CCCC(NC(=O)c3ccoc3)C2)ncn1 (stereo not drawn),2.1%
CCc1noc(-c2cccn3c(CNC(=O)Cc4cccc(F)c4)nnc23)n1,-11.1%
O=C(c1ccccc1F)N1CCC2(CC1)CCN(Cc1cccs1)c1ccccc1O2,-1.8%
C=CCN(CC=C)C(=O)c1c(-c2ccccc2)noc1[C@H](C)O,-2.4%[70.6 µM]
O=C(O)[C@]12CCCN[C@@H]1CCN(c1cc(N3CCOCC3)ncn1)C2,8.2%
Cc1ccc(NC(=O)Nc2ccc(C)n(CC(=O)NC3CCCC3)c2=O)cc1,u
O=C(O)c1cccc(CN2CC(COc3ccccc3)C3(C2)CN(c2ccccc2)C3)c1 (stereo not drawn),-3.3%[70.6 µM]
Nc1nc(C2CC(O)C2)cc(N2CCC(CCN3CCCC3=O)CC2)n1 (stereo not drawn),-0.3%
Cc1noc(C)c1S(=O)(=O)N1CCC2(CC1)C(=O)N(C)c1ccccc12,4.7%
COCC(=O)N[C@@H]1CN(Cc2ccc(Cl)cc2F)C[C@H]1CO,5.6%
O=C(C1CC1)N1CCCC(c2nc(C3CCOCC3)no2)C1 (stereo not drawn),22.9%
CCN1c2cc(C(=O)Nc3cccc(C)c3)ccc2C(=O)N2CCCCC21 (stereo not drawn),-2.2%
Cc1nn(C)c(C)c1S(=O)(=O)N1CCC2(CC1)CC(N1CCN(C)CC1)CCO2 (stereo not drawn),-9.9%
CNC(=O)c1cccc(-c2cnc3[nH]cc(CC(=O)NCc4cccc(F)c4)c3c2)c1,2.3%[70.6 µM]
O=C1N[C@H](CCC(=O)N2CCN(Cc3ccccc3Cl)CC2)C(=O)Nc2ccccc21,-0.6%
Cc1cn2nc(C(=O)NCc3ccccc3C)cc2c(=O)[nH]1,-12.7%

# By substructure: the compounds so far with two or more sulfur atoms (three)
SMILES,NPR1 antag
Cc1ccsc1C(=O)N1CCN(c2cc(-c3cccs3)[nH]n2)CC1,-22.8%
CC1(C)[C@H](Cc2cc(COC(=O)c3cccs3)on2)C[C@@H]1NC(=O)c1cccs1,25.1µM*
Cc1noc(C)c1[S+](=O)([O-])N1CCC2(CCN(Cc3cccs3)c3ccccc3O2)CC1,-18.9%

# Compounds from the list above that contain a COOH group:
SMILES,NPR1 antag
O=C(O)[C@]12CCCN[C@@H]1CCN(c1cc(N3CCOCC3)ncn1)C2,8.2%
O=C(O)c1cccc(CN2CC(COc3ccccc3)C3(C2)CN(c2ccccc2)C3)c1 (stereo not drawn),-3.3%[70.6 µM]

# The list is partial; the hit share may differ from the screen's.
